Screening results from PubChem BioAssay.
Beta apoptosis = inhibitors of cytokine-induced beta cell apoptosis, primary screen, luminescence. INS-1E cytokine-induced death, ATP luminescence, 48 h; percent of positive-control rescue, neutral wells zero. hit rate 0.8% among 300,000. protection from apoptosis, % (no concentration beside the values);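 active means all replicates at 75% or more, or half of them and the mean; inconclusive means half reach 75% but not the mean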;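 further: 0% = cytokine-treated negative control wells and 100% = positive control rescue; higher means more ATP so stronger rescue from cytokine killing; wells of about 40 µL received 100 nL stock; the first replicate is given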
Vif TR-FRET = inhibitors of Vif binding to APOBEC3G peptide, primary screen, biochemical, TR-FRET, GST-Vif 1-94, biotin-A3G peptide, dose response retest (AID 1117319) | hit rate 0.57% among 260,000 | Virion infectivity factor (Human immunodeficiency virus type 1 group M subtype B (isolate … | TR-FRET GST-Vif / biotin-A3G peptide binding; higher % means a stronger effect; test concentration not given here; strong numbers were not always called active | one-dose inhibition, %; IC50 in µM for titrated hits;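 active means above the screen mean plus three standard deviations and confirmed in dose response; inconclusive means results disagree or hit not tested in dose response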;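 further: Vif residues 1-94 fused to GST binding biotinylated APOBEC3G peptide 110-148; 0% = full assay without inhibitor and 100% = GST in place of GST-Vif; retest series ran down from 100 µM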
rRNA inh HTS = reduced GFP signal of wild-type E. coli, primary screen, bacterial rRNA inhibitor project, GFP/RFP fluorescence, OD600, single point; E. coli WT GFP vs humanized-ribosome RFP mutants, 24 h; active compounds read low; DMSO median 0, no signal -100; GFP signal change (wild-type ribosome), % (concentration not given with the values); hit rate 1.6% among 350,000; AID 720706, 2013;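 active means significant combined selectivity score with lowered wild-type GFP, culture density cut under 30%, mutant RFP and density less affected; inactive means any of these conditions unmet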; further: one replicate is shown; some compounds called inactive have numbers as strong as hits
MLL AF4-AF9 inh = inhibitors of AF4 peptide binding to AF9, primary screen, biochemical, AlphaScreen, biotin-AF4 peptide, FLAG-AF9, single point; Protein AF-9 (Homo sapiens), P42568; inhibition, % at 10 µM; hit rate 0.47% among 350,000;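 active means every replicate reaching a set inhibition limit, whatever the replicate mean, cut at about 25% in these data; inconclusive means mean inhibition reaches that limit but some replicates miss it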;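 further: 0% = plate neutral control median and 100% = total signal loss; the record names both 10 and 1 µM as test concentration; the first replicate is given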
Target sequence (P42568 whole entry, looked up): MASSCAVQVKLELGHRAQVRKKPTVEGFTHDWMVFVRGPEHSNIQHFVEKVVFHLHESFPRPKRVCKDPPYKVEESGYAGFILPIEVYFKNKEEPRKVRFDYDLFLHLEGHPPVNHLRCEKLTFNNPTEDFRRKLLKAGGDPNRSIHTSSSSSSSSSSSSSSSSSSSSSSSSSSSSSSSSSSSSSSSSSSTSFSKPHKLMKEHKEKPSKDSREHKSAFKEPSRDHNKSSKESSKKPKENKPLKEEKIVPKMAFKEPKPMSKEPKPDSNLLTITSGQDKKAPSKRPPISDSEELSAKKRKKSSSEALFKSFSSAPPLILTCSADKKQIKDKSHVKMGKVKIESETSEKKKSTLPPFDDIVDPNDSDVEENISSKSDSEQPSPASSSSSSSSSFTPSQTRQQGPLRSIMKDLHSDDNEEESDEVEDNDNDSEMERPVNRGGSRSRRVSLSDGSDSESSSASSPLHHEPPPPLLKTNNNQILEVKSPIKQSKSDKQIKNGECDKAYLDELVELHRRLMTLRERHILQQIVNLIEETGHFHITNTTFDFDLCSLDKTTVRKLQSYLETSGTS
Calb FLC = C. albicans growth inhibition with fluconazole, primary screen, CaCi-2 strain, Alamar Blue fluorescence. C. albicans CaCi-2 (fluconazole-resistant clinical isolate) + fluconazole, 48 h. growth inhibition, % (no concentration beside the values). hit rate 0.57% among 300,000. AID 1979, 2009;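 active means most replicates above 75%; inconclusive means exactly half above 75%; inactive means most below 75%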;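 further: all wells also contain fluconazole at 8 µg/ml as a sub-toxic cotreatment; 0% = median of DMSO wells and 100% = median of geldanamycin control wells; wells of about 8 µL received 7.5 nL stock; the first replicate is given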
RanGTP-Imp inh = inhibitors of RanGTP-importin-beta interaction, primary screen, biochemical, FRET, CFP-Ran, YFP-importin-beta, homogeneous; inhibition, % (concentration not given with the values); hit rate 1.1% among 300,000; cell-free CFP-Ran/YFP-importin-beta FRET ratio;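 active means most replicates above 15%; inconclusive means exactly half above 15%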;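 further: 0% = DMSO wells and 100% = Ran loaded with GDP instead of GTP; wells of about 40 µL received 100 nL stock; the first replicate is given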
T cruzi inh = inhibitors of intracellular T. cruzi growth, primary screen, luminescence, NIH3T3 host cells. hit rate 1.4% among 300,000. inhibition, % (concentration not given with the values). T. cruzi beta-gal in NIH3T3, 90 h;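 active means mean inhibition across valid replicates above about 55%, limit read from the data; inconclusive means mean below that limit but half or more replicates reach it; inactive means mean below it, under half of replicates reach it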;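 further: signal also drops with host cell toxicity which is not excluded here; 0% = plate median of DMSO wells and 100% = zero luminescence signal; higher percent means less beta-gal luminescence so fewer parasites; stock transfer was 50 nL into about 50 µL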
A1 inh = caspase 3/7 activation in MEF A1-2A-BIM cells, primary screen, A1 inhibitor project, cell-based, luminescence, HTS | Caspase-Glo 3/7 luminescence, 3 h; percent of clofoctol response, vehicle zero | hit rate 0.066% among 330,000 | caspase activation, % (no concentration beside the values) | AID 2462, 2010;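 active means over half of replicate activation scores above 10%, or exactly half above 10 with the replicate mean above 10; inconclusive means replicate mean below 10 yet half the replicates above 10; inactive means over half of replicates below 10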;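 further: wells of about 30 µL received 50 nL stock; many hits fall short of the cut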
rRNA inh HTS OD600 = further read-out of rRNA inh HTS, marked with its call; OD600 change, %; measured here: OD600 growth;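 optical density of the mix in the first replicate; 0 = DMSO median and -100 = no signal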
rRNA inh HTS RFP = recorded beside rRNA inh HTS, whose call it bears; RFP signal change, %; measured here: RFP humanized mutant strains;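 first replicate; 0 = DMSO median and -100 = no signal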
* hit, by the source's call; ? = inconclusive; · = no result given.

The line under a structure holds: Beta apoptosis	Vif TR-FRET	rRNA inh HTS	rRNA inh HTS OD600	rRNA inh HTS RFP	MLL AF4-AF9 inh	Calb FLC	RanGTP-Imp inh	T cruzi inh	A1 inh
C=CCC1(Cl)C(=O)C(Cl)=C(N2CCOCC2)C1(OC)OC (stereo unspecified)
 : 0	1%	7	-2	-2.0	-1.9	-7	3.2	-1	1.0
O=C(NNC(=S)Nc1ccccc1)c1ccc(O)cc1
 : 1	·	13	14	3.6	-52	-2	0.4	-11	-2.4
FCCCOc1ccc(-c2nccc(-c3ccc(F)cc3)n2)cc1
 : -13	-4%	·	·	·	·	35	0.3	0	-0.6
N#Cc1ccc(CN2C=NS(=O)(=O)c3ccccc32)cc1
 : -11	-6%	-3	1	-12	2.1	-6	3.2	-7	0.5
OCCN1CCN(c2nc(-c3ccccc3O)nc3ccccc23)CC1
 : 11	2%	-45	-51	-7.0	15	34	0.3	22	0.9
CCC1CCCCN1S(=O)(=O)c1ccc(NC(=O)CSc2ncccc2C(=O)O)cc1 (stereo unspecified)
 : ·	5%	·	·	·	·	26	?	-28	·
CCCn1c(=O)c2c(C(=O)OCC)cc(-c3ccco3)nc2n(CCC)c1=O
 : ·	5%	16	9	-7.1	2.6	-7	3.0	29	·
COc1ccc(OCCNC2CCCC2)cc1
 : -4	-4%	8	9	-2.2	-1.0	-5	?	11	0.6
CC1Cc2ccccc2N1Cc1nc2cc(C(F)(F)F)ccc2c(=O)[nH]1 (stereo unspecified)
 : -6	74µM*	·	·	·	·	-1	-0.9	-5	-0.6
O=C(NCc1ccco1)C(=O)N1CCCC1
 : -4	?	11	-1	-1.3	-13	-12	3.5	-2	0.5
CC1=CC(=O)C=C(C)C1=NOc1ccc([N+](=O)[O-])cc1
 : -13	·	4	-7	2.5	5.5	72	1.1	-16	0.5
O=S(Cc1cc(Oc2ccccc2)nc(-c2ccccc2)n1)c1ccccc1 (stereo unspecified)
 : -5	3%	·	·	·	·	2	0.5	16	-0.3
Cn1c(NC(=O)/C=C/c2ccco2)cc(=O)n(C)c1=O
 : -7	?	10	9	8.0	-2.4	2	-2.4	-12	1.0
CCOc1ccc(NS(=O)(=O)c2ccc(NS(=O)(=O)c3ccc(SC)cc3)cc2)cc1
 : 7	2%	·	·	·	·	38	·	-9	0.2
CCOC(=O)C1CCN(C(=O)c2cn(C)c(=O)c3cc(OC)c(OC)cc23)CC1
 : -12	18%	·	·	·	·	-2	-1.5	-5	0.4
COc1ccccc1/C=N/NC(=O)C(=O)N1CCN(c2ccccc2OC)CC1
 : -2	-2%	·	·	·	·	-3	-0.3	-14	-0.4
Cc1cccc2cc(/C=N/NC(=O)CN3CCCCC3)c(Cl)nc12
 : ·	0%	·	·	·	·	21	-2.7	-4	-0.6
C=CC[C@]12CCc3ccccc3C1N(c1ccc(C(=O)OCC)cc1)C2=O (stereo partly specified)
 : -1	·	-5	-11	-11	1.7	·	·	·	-0.7
O=C(NCCC1CCCCN1S(=O)(=O)c1ccc(Cl)cc1)C(=O)NCc1cccnc1 (stereo unspecified)
 : 1	1%	-15	-14	1.2	-2.9	16	3.0	13	-0.8
O=C(CSc1ncccn1)N/N=C/c1cccc([N+](=O)[O-])c1
 : -5	·	·	·	·	·	28	-1.7	-5	-0.7
Cc1oc(C(C)(C)C)cc1C(=O)NC1CCN(Cc2ccccc2)CC1
 : 4	-2%	-5	-16	2.5	-2.3	-26	3.6	24	0.9
Cc1cnc(C(=O)OCC(=O)c2ccc(-c3ccccc3)cc2)cn1
 : 4	0%	8	10	-0.9	-2.7	-4	1.0	-8	0.3
O=C(NCCc1ccccc1)C1CC1
 : 1	-8%	4	4	-1.5	-1.1	9	7.0	-2	0.8
CN(C)c1nc(SCC(=O)Nc2ccccc2)nc(N2CCOCC2)n1
 : -2	7%	13	5	1.3	-5.2	?	-0.9	-2	0.3
COc1ccc(N=Cc2c(O)c3ccccc3oc2=O)cc1
 : -13	·	7	4	0.7	0.0	0	-2.0	1	-1.4
CC(C)(C)OC(=O)C[C@H]1C/C=C\C[C@H](CC(=O)NCCO)C(=O)N2CCC[C@@H]2COC1=O
 : -4	·	3	12	9.3	-1.3	·	·	·	1.6
O=C(NCCc1ccccc1)c1ccc(CS(=O)Cc2cccc(Cl)c2)o1 (stereo unspecified)
 : 0	·	-13	-34	-5.0	2.7	2	2.9	-13	1.2
COc1ccccc1NC(=O)COc1ccc(C(=O)OCC(=O)NC(C)(C)C)cc1OC
 : -3	0%	11	10	4.2	0.6	0	7.6	-4	1.8
COc1ccc(C)cc1NC(=O)Nn1cnnc1
 : 0	8%	·	·	·	·	-13	0.4	-2	-0.5
Cc1nc2c(Br)c3nc(C(F)(F)F)[nH]c3c(Br)c2[nH]1
 : -2	20%	·	·	·	·	-4	-1.3	3	-0.1
Cc1c(C(=O)Nc2nnc(SCc3ccccc3Cl)s2)cccc1[N+](=O)[O-]
 : 11	·	5	9	-1.9	0.2	17	-1.1	-9	-0.2
Cc1ccc(CNc2ccc(S(=O)(=O)N3CCOCC3)cc2[N+](=O)[O-])cc1
 : -2	·	·	·	·	·	-1	0.0	1	-0.1
CN(C)/C=C/C(=O)/C=C/c1ccc(Cl)cc1
 : -6	7%	-2	1	3.1	1.5	-2	22*	-8	-0.6
O=C(CSc1nc2ccc(NC(=O)CSc3nnnn3-c3ccccc3)cc2s1)Nc1ccccc1
 : 0	1%	·	·	·	·	-1	4.6	-1	1.2
Cc1ccc(NC(=O)NCC(c2ccccc2)N(C)C)cc1 (stereo unspecified)
 : -6	-5%	16	15	4.8	2.5	5	-2.5	-18	0.5
CCn1ncc(Br)c1C(=O)Nc1nccs1
 : -8	3%	·	·	·	·	-13	1.8	5	0.7
Cc1cc[n+](CC(=O)Nc2cc(C(F)(F)F)ccc2Cl)cc1
 : ·	-2%	·	·	·	·	-14	-2.6	-14	0.9
CCOc1ccc(S(=O)(=O)N2CCOCC2)cc1NC(=O)CN1C(=O)NC2(CCCCC2)C1=O
 : -5	-4%	-3	3	-1.5	?	·	·	·	-0.3
O=c1[nH]c(/C=C/c2ccc(OC(F)F)cc2)nc2c1cnn2-c1ccccc1
 : 3	·	·	·	·	·	-7	-1.5	-2	-0.5
O=C(COC(=O)c1ccc[nH]c1=O)NC1CCCc2ccccc21 (stereo unspecified)
 : 0	-5%	1	0	0.7	-0.3	-3	-3.4	-5	1.4
CCOC(=O)c1cnn(Cc2ccccc2)c1N
 : -10	-4%	2	-10	4.3	3.4	-10	-3.0	-14	0.6
OC(c1ccccc1)c1nccn1Cc1ccccc1 (stereo unspecified)
 : 2	-5%	·	·	·	·	-3	2.4	-14	-0.4
Oc1ccccc1CNc1ccc(OC(F)(F)F)cc1
 : -8	-15%	-21	-25	-5.7	-0.9	-24	?	5	-1.0
O=C(Cc1cccc2ccccc12)N1CC[C@@]2(O)CCCC[C@H]2C1
 : -6	-4%	-14	-5	3.0	0.1	-19	1.7	12	0.3
Cc1nnc(SCC(=O)NC2CCCC(C)C2C)n1N (stereo unspecified)
 : -4	-6%	14	5	0.1	-2.8	·	·	·	1.1
COc1cc(C(=O)NC(=S)NCc2ccco2)cc(OC)c1OC
 : 2	5%	·	·	·	·	8	-1.0	11	-0.2
COC(=O)c1cc(S(=O)(=O)NCC2CCN(Cc3ccccc3F)CC2)c[nH]1
 : -4	·	8	5	-0.8	0.1	5	-2.4	10	0.3
O=C(O)c1cccc(Cn2cc(Br)cn2)c1
 : -1	22%	·	·	·	·	2	-1.0	-9	1.0
CC1=NNC(=O)C1CC(=O)N/N=C(\C)c1ccco1 (stereo unspecified)
 : -2	11%	16	5	0.1	-0.6	-5	2.6	-8	-0.4
Cc1cccn2c(=O)c(/C=C(\C#N)C(=O)NC3CCS(=O)(=O)C3)c(Oc3ccc(F)cc3)nc12 (stereo unspecified)
 : -7	·	23	12	1.6	-0.7	-3	37*	-9	0.3
Cc1ccc(NC2=Nc3ccccc3CS2)cc1
 : 1	19%	·	·	·	·	-3	6.8	12	1.3
Fc1ccc(-c2[nH]ncc2CN2CCN(c3ccc(F)cc3)CC2)cc1
 : -19	-8%	-11	-28	-3.0	5.7	3	4.6	6	-0.2
Nc1ccccc1C(=O)NCCCN1CCOCC1
 : -2	-2%	10	18	1.0	-0.9	-1	0.0	-1	-0.3
O=C(c1cccs1)N1CCN=C1SCc1cccc(F)c1
 : -17	3%	3	-2	-1.9	-0.3	-15	-2.8	11	0.2
O=C(NCCCc1ccncc1)C1CCC(=O)N(Cc2ccc(Cl)cc2)C1 (stereo unspecified)
 : 2	-7%	9	6	1.0	0.3	-4	1.7	-12	-1.0
CC(C)(C)NC(=O)C1CCN(C(=O)c2ccc(-c3ccccc3)cc2)CC1
 : 0	-2%	·	·	·	·	-13	2.5	5	0.3
COc1ccc(-c2nc3ccccn3c2NC2CCCCC2)cc1SC1CCCCC1
 : ·	·	2	4	9.5	15	16	1.4	37	-1.4
Cc1ccsc1CN(C)C(=O)CN1C(=O)NC2(CCCc3ccccc32)C1=O (stereo unspecified)
 : -6	-8%	·	·	·	1.3	·	·	·	-0.4
CC(Sc1nnc(C(F)(F)F)n1C)C(=O)NC(N)=O (stereo unspecified)
 : -4	-7%	·	·	·	·	0	0.5	-6	0.4
O=C(NN1C(=O)c2ccccc2NC1c1ccccn1)c1ccccc1 (stereo unspecified)
 : ·	-2%	·	·	·	·	20	-0.1	8	-0.3

Remaining list, next part:
The line under a structure holds: Beta apoptosis	Vif TR-FRET	rRNA inh HTS	rRNA inh HTS OD600	rRNA inh HTS RFP	MLL AF4-AF9 inh	Calb FLC	RanGTP-Imp inh	T cruzi inh	A1 inh
CCOc1ccccc1NC(=O)CN1C(=O)COc2ccc(Cl)cc21
 : -8	?	1	4	0.2	-1.7	-4	5.5	1	0.1
COc1cccc(C2CC(C(F)(F)F)n3ncc(C(=O)NC(C)(C)C)c3N2)c1 (stereo unspecified)
 : -4	-1%	·	·	·	·	2	-3.0	19	-0.4
O=C1CSC(=S)N1/N=C/c1cc(Br)ccc1O
 : 3	·	·	·	·	·	61	-0.4	-10	0.4
COCC(=O)Nc1ccccc1Br
 : -9	3%	·	·	·	-2.9	-8	0.0	-1	0.8
O=C(NCC(c1ccco1)N1CCCC1)c1cccc(S(=O)(=O)Nc2ccc(Br)cc2)c1 (stereo unspecified)
 : -3	·	1	-6	1.7	10	-9	8.1	51	0.1
Cn1nnc(NC(=O)c2ccc3ccccc3c2)n1
 : 0	4%	·	·	·	·	-6	-0.3	-5	-1.2

Some of the compounds tested (hit frequency here may not be typical).
